From PubChem
MLL AF4-AF9 inh: inhibitors of human MLL-AF4/AF9 interaction; 350,000 compounds, 0.47% hits; P42568; AID 651704; inhibition, % at 10 µM; AlphaScreen, biotin-AF4 peptide binding to FLAG-AF9;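 active = every replicate reaching a set inhibition limit, whatever the replicate mean, cut at about 25% in these data; inconclusive = mean inhibition reaches that limit but some replicates miss it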;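 note: 0% = plate neutral control median and 100% = total signal loss; the record names both 10 and 1 µM as test concentration; the first replicate is given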
Target sequence (P42568 whole entry, looked up): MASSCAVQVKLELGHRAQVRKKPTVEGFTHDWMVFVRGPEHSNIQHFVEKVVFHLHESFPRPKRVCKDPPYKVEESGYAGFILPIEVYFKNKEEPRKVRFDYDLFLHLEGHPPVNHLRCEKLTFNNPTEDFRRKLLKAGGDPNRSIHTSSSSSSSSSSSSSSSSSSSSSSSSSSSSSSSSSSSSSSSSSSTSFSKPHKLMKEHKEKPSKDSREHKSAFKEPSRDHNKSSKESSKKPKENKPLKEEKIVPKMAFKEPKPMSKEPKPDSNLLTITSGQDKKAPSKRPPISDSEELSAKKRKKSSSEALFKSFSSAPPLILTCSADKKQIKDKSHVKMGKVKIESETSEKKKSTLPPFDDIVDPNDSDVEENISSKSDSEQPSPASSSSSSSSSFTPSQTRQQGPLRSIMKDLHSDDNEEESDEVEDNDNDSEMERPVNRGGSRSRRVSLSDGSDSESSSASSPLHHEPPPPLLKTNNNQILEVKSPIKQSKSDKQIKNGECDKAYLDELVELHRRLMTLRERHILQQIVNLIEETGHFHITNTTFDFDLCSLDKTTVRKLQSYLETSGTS
Vif TR-FRET: HIV-1 Vif–A3G interaction blockers – biochemical, TR-FRET, GST-Vif 1-94, biotin-A3G peptide, dose response retest, primary screen (AID 1117319); inhibition, %; hits with a dose series show IC50 in µM; TR-FRET GST-Vif / biotin-A3G peptide binding; higher % means a stronger effect; test concentration not given here; strong numbers were not always called active; 260,000 compounds, 0.57% hits;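 active = above the screen mean plus three standard deviations and confirmed in dose response; inconclusive = results disagree or hit not tested in dose response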;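 note: Vif residues 1-94 fused to GST binding biotinylated APOBEC3G peptide 110-148; 0% = full assay without inhibitor and 100% = GST in place of GST-Vif; retest series ran down from 100 µM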
Beta apoptosis: blocks beta cell apoptosis; AID 435005; INS-1E cytokine-induced death, ATP luminescence, 48 h; percent of positive-control rescue, neutral wells zero; protection from apoptosis, % (no concentration beside the values); 300,000 compounds, 0.8% hits;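 active = all replicates at 75% or more, or half of them and the mean; inconclusive = half reach 75% but not the mean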;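 note: 0% = cytokine-treated negative control wells and 100% = positive control rescue; higher means more ATP so stronger rescue from cytokine killing; wells of about 40 µL received 100 nL stock; the first replicate is given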
rRNA inh HTS: selective bacterial rRNA inhibition in E. coli; E. coli WT GFP vs humanized-ribosome RFP mutants, fluorescence, 24 h; stronger effect = lower value; DMSO median 0, no signal -100; GFP signal change (wild-type ribosome), % (test concentration not listed); 350,000 compounds, 1.6% hits; AID 720706;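 active = significant combined selectivity score with lowered wild-type GFP, culture density cut under 30%, mutant RFP and density less affected; inactive = any of these conditions unmet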; note: one replicate is shown; some compounds called inactive have numbers as strong as hits
RanGTP-Imp inh: inhibitors of RanGTP-importin-beta interaction, primary screen, biochemical, FRET, CFP-Ran, YFP-importin-beta, homogeneous | cell-free CFP-Ran/YFP-importin-beta FRET ratio | inhibition, % (concentration not given with the values) | 300,000 compounds, 1.1% hits | AID 2216;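 active = most replicates above 15%; inconclusive = exactly half above 15%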;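 note: 0% = DMSO wells and 100% = Ran loaded with GDP instead of GTP; wells of about 40 µL received 100 nL stock; the first replicate is given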
T cruzi inh: blocks replication of Trypanosoma cruzi. inhibition, % (test concentration not listed). T. cruzi beta-gal in NIH3T3, luminescence, 90 h. 300,000 compounds, 1.4% hits;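 active = mean inhibition across valid replicates above about 55%, limit read from the data; inconclusive = mean below that limit but half or more replicates reach it; inactive = mean below it, under half of replicates reach it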;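 note: signal also drops with host cell toxicity which is not excluded here; 0% = plate median of DMSO wells and 100% = zero luminescence signal; higher percent means less beta-gal luminescence so fewer parasites; stock transfer was 50 nL into about 50 µL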
Calb FLC: affects C. albicans growth with fluconazole. C. albicans CaCi-2 (fluconazole-resistant clinical isolate) + fluconazole, Alamar Blue growth, 48 h. growth inhibition, % (concentration not given with the values). 300,000 compounds, 0.57% hits;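 active = most replicates above 75%; inconclusive = exactly half above 75%; inactive = most below 75%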;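 note: all wells also contain fluconazole at 8 µg/ml as a sub-toxic cotreatment; 0% = median of DMSO wells and 100% = median of geldanamycin control wells; wells of about 8 µL received 7.5 nL stock; the first replicate is given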
A1 inh: inhibitors of the anti-apoptotic protein A1, read as caspase activation; caspase activation, % (test concentration not listed); AID 2462; MEF A1-2A-BIM cells, Caspase-Glo 3/7 luminescence, 3 h; percent of clofoctol response, vehicle zero; 330,000 compounds, 0.066% hits;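 active = over half of replicate activation scores above 10%, or exactly half above 10 with the replicate mean above 10; inconclusive = replicate mean below 10 yet half the replicates above 10; inactive = over half of replicates below 10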;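 note: wells of about 30 µL received 50 nL stock; many hits fall short of the cut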
rRNA inh HTS OD600: also measured in rRNA inh HTS; calls as there; OD600 change, %; measured here: OD600 growth;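 optical density of the mix in the first replicate; 0 = DMSO median and -100 = no signal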
rRNA inh HTS RFP: further read-out of rRNA inh HTS, marked with its call; RFP signal change, %; measured here: RFP humanized mutant strains;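 first replicate; 0 = DMSO median and -100 = no signal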
* marks the source's active call; other numbers are inactive results; ? = inconclusive; . = not tested or not shown.

SMILES | MLL AF4-AF9 inh | Vif TR-FRET | Beta apoptosis | rRNA inh HTS | rRNA inh HTS OD600 | rRNA inh HTS RFP | RanGTP-Imp inh | T cruzi inh | Calb FLC | A1 inh
COc1ccc(NC(=O)CSc2nnc(NC(=O)c3ccco3)s2)cc1OC | -2.3 | . | 5.2 | 1.2 | 6.9 | -1.4 | ? | -9.7 | -3.7 | -0.7
O=C(CCCN1C(=O)c2cccc3cccc(c23)C1=O)NCc1cccnc1 | -6.4 | 15.9% | 3.1 | -11.4 | -1.6 | -5.6 | 1.9 | 4.9 | 8.9 | -0.3
CCc1nonc1NC(=O)c1oc2ccccc2c1C | -3.9 | -1.9% | 0.6 | 3.2 | 13.3 | -2.3 | 0.3 | -10.0 | -10.2 | -1.2
CC(C)CC1c2[nH]c3ccccc3c2CCN1C(=O)CCC(=O)N(C)C (stereo unspecified) | 0.2 | -2.0% | -2.9 | -1.8 | -7.1 | 4.4 | 4.1 | -11.8 | ? | -0.4
COc1ccc(S(=O)(=O)N/N=C(/C)c2ccc(Cl)cc2)cc1 | -1.5 | 2.5% | 5.6 | -10.8 | -13.7 | 8.0 | -1.7 | 6.5 | 14.6 | 0.4
O=C(Cc1ccc(Br)cc1)N1CCCC1 | 0.1 | . | -2.7 | -8.4 | -8.6 | 13.9 | -0.6 | -11.2 | 0.7 | 1.6
Cc1ccc(C(=O)N(Nc2nc3ccccc3s2)C(=O)c2ccc(C)cc2)cc1 | 8.5 | -14.3% | 4.6 | 14.6 | 3.4 | 7.5 | 0.2 | -1.3 | 7.9 | 1.8
CC(C)(C)c1ccc(C(=O)NCCCNC(=O)c2ccco2)cc1 | 3.2 | . | 2.9 | 2.1 | -9.6 | 11.4 | -1.9 | 1.3 | 20.6 | -1.3
COc1cccc(NC(=O)Nc2cc(Cl)ccc2C)c1 | -2.3 | . | 5.9 | -1.0 | 4.6 | -0.5 | 2.3 | 15.1 | -22.8 | 0.5
CCc1ccc(NC(=O)c2cc(-c3ccc4c(c3)OCO4)on2)cc1 | -1.6 | . | -7.3 | 2.8 | 9.7 | -0.7 | -0.8 | -4.3 | 5.6 | -0.1
COc1ccccc1NC(=S)NC1CCCCCC1 | 3.2 | . | 0.8 | 2.6 | -4.4 | -9.9 | -3.6 | -4.7 | 0.5 | -0.1
CCOC(=O)c1c(NC(=O)CSc2nncn2C)sc(C)c1C | . | -2.3% | 1.7 | . | . | . | -0.2 | -15.7 | 27.3 | 0.9
CCCCNCCOCCOc1ccc(Cl)cc1Br | -7.0 | -2.7% | -1.2 | -11.6 | -21.4 | -8.3 | -3.2 | 41.5 | -3.7 | -1.9
O=c1c2ccc(Cl)cc2nc(-c2ccc([N+](=O)[O-])cc2)n1O | 4.6 | -11.1% | 12.4 | 13.3 | 12.7 | 4.6 | ? | -26.1 | 86.9* | -0.6
CCOC(=O)c1c(NC(=O)CN2C(=O)C(=O)N(C(C)C)C2=O)sc(C)c1CC | 1.2 | . | -4.9 | 3.6 | 1.8 | 2.2 | . | . | . | -0.9
Nc1nnnn1/N=C/c1cc(Cl)cc(Cl)c1OCc1ccc(Cl)cc1Cl | . | 1.9% | 20.7 | . | . | . | 1.3 | 3.7 | 3.9 | 1.4
Cc1c(C(=O)N(Cc2ccc(Cl)cc2)C2CCS(=O)(=O)C2)oc2ccccc12 (stereo unspecified) | -1.4 | . | -3.1 | -7.3 | -4.8 | 3.2 | 0.4 | 22.6 | 0.5 | 0.0
COC(=O)c1ccc(Cn2nc(C)cc2C)cc1 | . | -2.8% | -3.1 | . | . | . | -3.6 | -13.6 | 1.0 | 1.4
Cc1ccc(S(=O)(=O)N2CCOCC2)cc1C(=O)N1CCCC1 | -2.9 | . | -0.7 | 14.1 | 6.5 | 0.7 | 6.2 | 4.8 | 1.9 | 0.1
COC(=O)c1cccc(N(C(=O)CNC(=O)c2cccs2)C(C(=O)NCC2CCCO2)c2ccc(OC)c(OC)c2)c1 (stereo unspecified) | -2.3 | . | -1.5 | 1.0 | 6.1 | -1.2 | 2.9 | -2.6 | 2.4 | 0.7
COc1cc(CN2CCN(Cc3ccc([N+](=O)[O-])cc3)CC2)c([N+](=O)[O-])cc1OC | 12.8 | ? | 16.3 | 17.6 | 7.5 | 12.0 | 1.0 | 22.4 | -0.8 | -0.3
CC(C)CCN1CC(O)=C(c2nc(-c3ccc(Cl)cc3)cs2)C1=N | . | 26.9% | 7.7 | . | . | . | 3.1 | 3.4 | 30.3 | 0.5
Nc1cc(=O)nc(SCC(=O)N2CCN(c3ccccc3)CC2)n1-c1ccccc1 | 1.9 | . | -1.4 | 5.2 | 11.4 | 0.7 | -2.9 | -12.0 | 3.2 | -0.4
COc1ccc(S(=O)(=O)N2CCC(C(=O)N[C@@H](C)C(=O)NCc3cccc(OC)c3)CC2)cc1 | -3.6 | . | -5.5 | 2.1 | 3.8 | -0.3 | -0.1 | -4.4 | 2.3 | -1.5
O=C(N/N=C/c1ccccn1)c1ccncc1 | -2.8 | 1.4% | -9.9 | 8.9 | 15.5 | 2.8 | 1.6 | -9.5 | 18.1 | -0.1
CC(c1ccccc1)n1c(NCCCn2ccnc2)nc2c1c(=O)[nH]c(=O)n2C (stereo unspecified) | . | -2.7% | . | . | . | . | ? | -10.3 | -1.4 | .
Cc1cc(O)c(C=Nc2ccc(N3CCOCC3)cc2)c(C)c1Cl | 6.8 | . | . | 14.7 | 10.9 | 2.2 | 4.1 | -1.7 | -2.1 | 0.5
C=CCn1c(SCC(=O)Nc2ccc(OC)cc2)nc2ccccc2c1=O | 2.3 | . | 4.5 | -4.6 | -0.1 | 0.7 | -1.7 | 5.1 | -6.9 | -0.8
COc1ccc(CCNc2c(C)c(C)nc3ncnn23)cc1 | 2.4 | ? | 100.5* | -3.1 | -0.9 | -2.0 | -0.2 | -84.2 | 0.9 | 0.9
Cc1ccnc(NC(=O)c2ccc3c(c2)OCO3)c1 | -1.8 | 4.7% | 34.3 | 6.9 | 16.7 | -3.4 | 5.1 | -25.2 | 18.2 | -9.7
NNC(=O)CSCc1nc(-c2ccc(Cl)cc2)cs1 | 0.3 | 4.1% | 2.0 | -27.4* | -16.1* | -2.5* | -1.1 | -4.9 | 4.3 | -0.9
COc1ccc(CCNc2nc(C)c(C(C)=O)s2)cc1OC | . | ? | -1.4 | . | . | . | 0.0 | -18.0 | 0.8 | -0.8
CC(C)(C)OC(=O)NCc1ccc(NC(=O)c2nc[nH]c2C(=O)NCCCCCCNC(=O)c2[nH]cnc2C(=O)Nc2ccc(CNC(=O)OC(C)(C)C)cc2)cc1 | -4.6 | . | 7.0 | 4.6 | 13.4 | -0.4 | . | . | . | 0.5
CCOC(=O)c1ccc(NC(=O)COc2ccc(S(=O)(=O)NC(C)(C)C)cc2)cc1 | . | -1.3% | -2.1 | . | . | . | 4.9 | 15.8 | -4.4 | -0.6
Nc1c(Cl)cc(-c2csc(N3CCCC3c3nc4cc(Cl)c(N5CCCCC5)cc4n3CCCO)n2)cc1Cl (stereo unspecified) | 2.5 | . | -0.2 | -2.5 | 7.4 | -1.9 | 0.5 | 7.7 | -8.0 | 0.9
Cc1c(C(=O)N2CCCC2)c(S(=O)(=O)N2CCCCC2)c(C)n1C | -1.9 | -3.0% | . | 5.3 | 5.2 | -1.4 | 4.2 | -8.1 | 1.6 | -0.1
CCn1c(C)csc1=NC(=O)c1ccccc1 | . | -7.5% | -13.6 | . | . | . | -2.1 | 3.9 | -16.5 | 0.2
COc1cccc(NS(=O)(=O)c2ccc3[nH]cc(C(=O)N(C)Cc4ccco4)c(=O)c3c2)c1 | . | 11.5% | . | . | . | . | 4.2 | -4.9 | 11.1 | 0.2
O=C(NCc1ccco1)C(c1ccccc1)N(CC1CCCO1)C(=O)Cn1nnc2ccccc21 (stereo unspecified) | . | -1.7% | -3.6 | . | . | . | -1.2 | -1.6 | 30.5 | -0.2
CC(C)(C)OC(=O)N1CCC(c2c(C(=O)NCC3CCN(C4CCCC4)C3)cnn2-c2ccccc2Cl)CC1 (stereo unspecified) | 9.0 | . | . | 1.3 | 0.9 | 3.8 | 3.4 | 32.0 | -4.4 | 0.7
CC1CCN(C(=O)CCN2C(=O)/C(=C/c3cccs3)SC2=S)CC1 | 6.6 | . | -12.5 | -4.8 | -4.1 | -2.0 | -2.3 | 30.1 | 38.3 | 0.0
Cn1ncc2c(NNC(=O)c3ccc(O)cc3)ncnc21 | 0.0 | -4.4% | -7.7 | 24.1 | 19.9 | -0.7 | -2.9 | -5.9 | -0.3 | -0.1
COc1cc(-c2nc(CN3CCN(c4ncccn4)CC3)c(C)o2)ccc1F | -1.2 | ? | 9.7 | -24.1 | -26.2 | -3.3 | 2.5 | 17.4 | 21.8 | -0.2
Cc1cc(C)cc(OCC(=O)NC(C)c2ccccc2)c1 (stereo unspecified) | -1.0 | -3.1% | -2.9 | 2.3 | -8.0 | -1.6 | -0.9 | 2.3 | 1.2 | -2.5
Fc1ccc(Nc2ncnc3sc4c(c23)CCC4)cc1F | . | 10.3% | 5.5 | . | . | . | 4.1 | 1.8 | -2.7 | 0.6
COc1ccc(NC(=O)CSc2nnc(-c3cccnc3)n2C)cc1 | -9.6 | 16.1% | -0.5 | 8.8 | 3.9 | -1.0 | -0.5 | -0.7 | 7.0 | 0.3
COc1ccc(Br)c2oc(S)cc(=O)c12 | 0.2 | ? | -6.9 | 11.2 | 6.2 | -2.0 | 4.5 | -8.8 | -15.6 | -0.4
COc1cc(OC)cc(C(=O)Nc2nnc(SCC(=O)NCC3CCCO3)s2)c1 (stereo unspecified) | -6.3 | 13.8% | 8.1 | 0.7 | 3.8 | -1.2 | 1.5 | -15.1 | -3.5 | -0.7
Cc1ccc(S(=O)(=O)N2CCCCC2)cc1NC(=O)COC(=O)c1ccc2c(c1)OCO2 | -8.1 | -5.2% | -0.6 | -1.3 | 0.2 | 6.7 | 4.6 | 5.9 | -25.3 | 0.6
CCOC(=O)c1ccccc1NC(=O)COC(=O)c1cc([N+](=O)[O-])ccc1N1CCOCC1 | -17.5 | 2.1% | 5.1 | -2.3 | 0.4 | 3.5 | -2.0 | 11.9 | 5.6 | -0.1

An excerpt; count on the stated rates, not on these rows.
